Screening results (PubChem)
Autofluor counter – counter-screen for toxin protease inhibitors: compound fluorescence; fluorescence intensity (concentration not given with the values); compound autofluorescence counterscreen, microsphere flow cytometry; active compounds read high; 360,000 tested, 3.1% active;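 active = at least 3 SD above the mean of all compounds, about 16000 in these data; inconclusive = too few beads counted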;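 note: 100 nL of 1 mM stock went into each well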
Sa RN4220 lethal – S. aureus RN4220 growth inhibition. OD600, 16 h. inhibition, % (concentration not given with the values). 330,000 tested, 0.33% active. AID 1259311;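 active = z-score of -3 or lower and OD600 up to 0.18 on both plates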;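 note: plate controls were untreated cells for no effect and reference antibiotic for full effect; stock transfer was 100 nL into about 80 µL; one replicate is shown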
Mtb hypoxia inh – inhibitors of hypoxia-regulated fluorescent reporter in Mycobacterium tuberculosis; M. tuberculosis hypoxia-regulated fluorescent reporter, fluorescence; fluorescence inhibition, % (test concentration not listed); 300,000 tested, 0.1% active; AID 1159583;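 active = 35 to 45% if threefold the growth effect, above 45% if 1.5-fold the growth effect; inactive = the rest, general growth blockers included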;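 note: wells of about 50 µL received 100 nL stock; 0% = vehicle wells and 100% = reference inhibitor wells; whole bacteria with a GFP reporter of the hypoxia response; strong numbers were not always called active; many hits fall short of the cut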
PrP 5UTR inh – inhibition of PrP 5' UTR reporter expression. 340,000 tested, 0.35% active. cell-based PrP 5' UTR mRNA reporter, plate reader. AID 488862. inhibition, % (no concentration beside the values);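 active = every replicate at 50% or more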;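 note: 0 = median of the neutral control wells; tested in H4 reporter cells; numbers are from one replicate; inactives centre near -14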
Sa ugtP lethal – compounds lethal to S. aureus RN4220 ugtP deletion mutant. OD600 growth, 16 h; some inactives read as strong as hits. growth inhibition, % (concentration not given with the values). 330,000 tested, 0.54% active. AID 1259309;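 active = z-score under -3 and OD600 up to 0.15 on both plates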;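 note: plate controls were untreated wells for no effect and antibiotic for full effect; wells of about 80 µL received 100 nL stock; the first replicate is given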
BJeLR viability – BJeLR cell viability loss. BJeLR (HRASV12) viability, CellTiter-Glo ATP luminescence, 48 h; reference of the scale not given here. inhibition, % (concentration not given with the values). 300,000 tested, 0.17% active;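 active = replicate mean above 50%; inconclusive = above 50% but judged a plate artefact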;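 note: 50 nL library stock added to about 25 µL; numbers are from one replicate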
Mtb hypoxia inh growth – recorded beside Mtb hypoxia inh, whose call it bears; growth inhibition, %; measured here: M. tuberculosis growth (absorbance);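 0% = vehicle and 100% = reference antibiotic; read after six days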
* marks the source's active call; other numbers are inactive results; ? = inconclusive; nt = not tested or not shown.

SMILES	Autofluor counter	Sa RN4220 lethal	Mtb hypoxia inh	Mtb hypoxia inh growth	PrP 5UTR inh	Sa ugtP lethal	BJeLR viability
CCOC(=O)CSc1nnc(Cn2c(=O)sc3ccccc32)n1C	4328	-2.0	nt	nt	0	7	-1
O=C(COc1ccc([N+](=O)[O-])cc1)Nc1ccccc1C(=O)NC1CC1	?	3.9	2	0	14	10	-2
Cc1cccc(CSc2nc3sc(C)c(C)c3c(=O)n2Cc2ccco2)c1	10170	-3.4	9	-1	-23	19	-1
C=CCN1C(=O)/C(=C/c2ccsc2)SC1=S	4206	5.2	0	5	-4	3	-7
Cn1c(=O)c2c(=O)cc(NNC(=O)CC#N)[nH]c2n(C)c1=O	2031	0.7	9	10	-21	2	-9
O=C(c1ccc2c(c1)OCO2)N1CCCc2ccccc21	3382	-0.5	nt	nt	-13	8	-13
COc1ccc(C(CC(=O)O)NC(=O)COc2ccc(C)cc2)cc1OC (stereo not given)	2341	3.8	4	7	-1	1	-4
COCCNC(=S)N(CCN(C)C)Cc1cc2cc3c(cc2[nH]c1=O)OCO3	3744	4.0	-1	-3	4	9	-20
CCOC(=O)c1c(C)nc2c(c1-c1ccccc1)C(=O)CCC2	3591	3.0	nt	nt	-7	11	4
CSc1ccccc1NC(=O)CSc1nnc(CNC(=O)c2ccccc2F)n1C	3888	-1.6	-1	9	-17	5	-7
CCc1nnc(N/N=C/c2cccs2)n1N	2032	nt	nt	nt	-58	nt	9
COc1cc2c(cc1OC)C(c1ccc(Br)cc1)N(C(=O)c1ccccc1C(=O)O)CC2 (stereo not given)	4131	3.2	-11	5	-62	-8	-17
CC1CCCCN1S(=O)(=O)c1ccc(-n2cnnn2)cc1 (stereo not given)	3591	2.4	12	3	-14	0	1
CSc1nsc(SCC(=O)Nc2ccccn2)n1	nt	4.1	1	-6	-7	10	1
CNC(=O)c1ccc(NC(=O)CCNC(=O)Nc2ccccc2)cc1	6521	5.2	4	2	-24	3	nt
CCCCN1C2CCCC1CC(NC(=O)c1cccc(Cl)c1)C2 (stereo not given)	3578	-2.4	-3	4	-4	1	-5
Cc1ccc(C)n1-c1ccncc1	3330	-6.5	7	3	-6	-5	1
COc1ccc(NC(=O)C2CCN(S(=O)(=O)c3cn(C)nc3C)CC2)cc1	5177	-0.9	-5	3	-6	-3	0
Cc1c(C(=O)Nc2ccc(S(=O)(=O)N(C)C3CCN(C)CC3)cc2)oc2ccccc12	4113	-3.5	0	-7	-15	-1	nt
CN(NC(=O)c1ccco1)c1nc2ccccc2nc1C(F)(F)F	4885	0.9	13	8	-30	10	5
COc1ccc2c(COC(=O)c3n[nH]c4ccccc34)cc(=O)oc2c1	4731	8.1	nt	nt	-55	-5	-5
CCc1nc2ccccc2c(=O)n1-c1cccc(OC)c1	4432	3.7	8	2	4	13	5
COc1ccc(Cn2cc(C(=O)c3ccccc3)c(=O)c3cc(OC)ccc32)cc1	5850	0.1	nt	nt	11	4	19
O=c1oc2ccccc2c2c1nc(C(F)(F)F)n2-c1ccccc1	2680	1.4	8	17	-10	0	-8
O=C(O)C=CC(=O)NCCC1=CCCCC1	nt	7.6	4	2	nt	1	nt
Fc1cccc(F)c1C=NN1CCOCC1	nt	6.6	8	-1	nt	6	nt
CCn1c(CNC(=O)COc2ccc(C(C)C)cc2)nnc1SCC(=O)Nc1ccccc1C(C)C	5432	6.1	0	0	-53	-8	5
CCOC(=O)CSc1nnc(CNC(=O)c2cccc(C)c2)n1-c1ccccc1OC	3429	1.8	nt	nt	-9	8	-2
CCOC(=O)C1CCCN(C(=O)Cn2sc3nc(C)cc(C)c3c2=O)C1 (stereo not given)	5891	-3.1	6	0	-5	13	22
CCOC(=O)c1c(NC(=O)c2cc(C)on2)c2cc([N+](=O)[O-])ccc2n1C	nt	-4.5	-9	-2	nt	-7	0
CC(NC(=O)COC(=O)c1cc(Cl)ccc1O)C1CC2CCC1C2 (stereo not given)	nt	2.6	9	2	-18	3	nt
Cc1cc(NC(=O)COC(=O)[C@H](C)NC(=O)c2ccccc2)no1	3075	-4.9	4	8	-2	-7	-2
Cc1cccc(N(Cc2ccccc2)C(=O)c2ccc(C)c(S(=O)(=O)N3CCOCC3)c2)c1	3470	5.0	4	8	-4	-2	nt
COc1cc(/C=C/CN2CCC(CO)(CC3CCCCO3)CC2)ccc1O (stereo not given)	3930	1.0	-12	-8	-1	15	-1
CC(=O)Nc1ccc(S(=O)(=O)N2CCN(C(=O)N3CCCCCC3)CC2)cc1	4434	2.1	nt	nt	-30	-1	2
CC[n+]1c(C)n(-c2ccccc2)c2ccc(C(=O)OC)cc21	3953	3.2	-2	6	-63	2	-16
O=C(CSCc1ccc(Cl)cc1)Nc1ccc(S(=O)(=O)N2CCCCCC2)cc1	2638	5.1	-4	-2	-17	-7	-8
O=c1[nH]c(=S)c2ncn(-c3ccccc3)c2[nH]1	4299	3.0	5	12	nt	2	-3
Cc1nn(C)c(C)c1CN(C)C(=O)C1(C)CC1(Br)Br (stereo not given)	2406	2.6	10	5	-24	8	1
C=C1[C@H]2CC[C@H]3[C@]4(C)C[C@H](O[C@@H]5OC(CO)[C@@H](OSOOO)[C@H](OS(=O)(=O)O)[C@H]5OC(=O)CC(C)C)C[C@@H](C(=O)O)[C@H]4CC[C@]3(C2)[C@H]1O (stereo not given in full)	3600	22	2	8	-15	-5	nt
COc1ccccc1C=NNC(=S)Nc1cccnc1	nt	1.5	4	-8	nt	-1	nt
Cc1cc(/C=C2/SC(=S)N(c3cccc(C(F)(F)F)c3)C2=O)c(C)n1-c1cccnc1	11089	-3.8	nt	nt	-14	9	6
COC(=O)CCc1c(C)nc(N)[nH]c1=O	2803	-14	11	7	-16	0	8
Cc1cccc(C)c1NC(=O)CN1C(=O)S/C(=C\c2cccn2-c2cccc(C(=O)O)c2)C1=O	2369	3.3	nt	nt	-19	-2	3
Cc1ccc(OCCSc2nc3ccccc3n2CC(=O)O)cc1C	nt	3.6	19	5	-16	1	6
CCN(c1ccccc1)S(=O)(=O)c1ccc(Cl)c(NC(=O)CN2CCCCCC2)c1	4304	-2.2	6	-3	-3	15	3
O=C(c1cccs1)N1CCN(c2ccccc2)CC1	3711	6.4	11	8	-24	3	-5
CCC(c1nnc(SCC(=O)Nc2c(F)cccc2F)n1Cc1ccccc1)N(C)C (stereo not given)	4362	2.7	8	-6	-17	7	-4
C/C(=N\O)C(=O)NCc1ccccn1	4174	nt	nt	nt	-28	nt	9
Cc1cc(=O)[nH]c(SCCCOc2ccccc2Cl)n1	20446*	3.7	5	5	-40	2	-6
Nc1n[nH]c(N)c1N=Nc1cccc(F)c1	2491	nt	nt	nt	-19	nt	-13
O=C(NN(c1ccccc1)c1ccccc1)c1ccc([N+](=O)[O-])o1	4490	12	3	12	-64	-3	1
CCc1ccc(-c2ccc(C(=O)C(F)(F)F)[nH]2)cc1	8306	0.1	13	14	-98	-11	5
Cc1cc(-c2ccn[nH]2)c(C)s1	4441	8.6	-11	-1	-32	4	-2
COc1ccc(CCNC(=O)CCNS(=O)(=O)c2cccc(Cl)c2)cc1OC	4794	nt	nt	nt	-27	nt	0
CC(=O)N1N=C(c2cccc(NS(C)(=O)=O)c2)CC1c1cccs1 (stereo not given)	2766	7.6	14	5	-29	-1	5
C=C(Cl)COc1ccc2c(C)cc(=O)oc2c1	4615	6.2	6	10	-46	-2	-5
O=C(CN1CCN(S(=O)(=O)c2ccc(Br)cc2)CC1)NN=Cc1cc([N+](=O)[O-])ccc1Cl	nt	-1.8	2	2	nt	-2	nt
CC(=O)NN1C(=O)c2ccccc2NC1c1cccnc1 (stereo not given)	3393	1.6	14	0	-30	-1	0
CC(C)(C)c1ccc(/C=N/NC(=O)Cc2c[nH]c3ccccc23)cc1	6526	nt	nt	nt	-22	nt	-4

A draw from above in order of formula weight, low to high.
SMILES	Autofluor counter	Sa RN4220 lethal	Mtb hypoxia inh	Mtb hypoxia inh growth	PrP 5UTR inh	Sa ugtP lethal	BJeLR viability
Cc1ccc(C)n1-c1ccncc1	3330	-6.5	7	3	-6	-5	1
O=C(c1cccs1)N1CCN(c2ccccc2)CC1	3711	6.4	11	8	-24	3	-5
O=C(c1ccc2c(c1)OCO2)N1CCCc2ccccc21	3382	-0.5	nt	nt	-13	8	-13
CC[n+]1c(C)n(-c2ccccc2)c2ccc(C(=O)OC)cc21	3953	3.2	-2	6	-63	2	-16
Cn1c(=O)c2c(=O)cc(NNC(=O)CC#N)[nH]c2n(C)c1=O	2031	0.7	9	10	-21	2	-9
Cc1cc(NC(=O)COC(=O)[C@H](C)NC(=O)c2ccccc2)no1	3075	-4.9	4	8	-2	-7	-2
O=C(COc1ccc([N+](=O)[O-])cc1)Nc1ccccc1C(=O)NC1CC1	?	3.9	2	0	14	10	-2
Cc1ccc(OCCSc2nc3ccccc3n2CC(=O)O)cc1C	nt	3.6	19	5	-16	1	6
CC(=O)N1N=C(c2cccc(NS(C)(=O)=O)c2)CC1c1cccs1 (stereo not given)	2766	7.6	14	5	-29	-1	5
COc1cc(/C=C/CN2CCC(CO)(CC3CCCCO3)CC2)ccc1O (stereo not given)	3930	1.0	-12	-8	-1	15	-1
Cc1nn(C)c(C)c1CN(C)C(=O)C1(C)CC1(Br)Br (stereo not given)	2406	2.6	10	5	-24	8	1
COc1ccc(CCNC(=O)CCNS(=O)(=O)c2cccc(Cl)c2)cc1OC	4794	nt	nt	nt	-27	nt	0
CCn1c(CNC(=O)COc2ccc(C(C)C)cc2)nnc1SCC(=O)Nc1ccccc1C(C)C	5432	6.1	0	0	-53	-8	5
C=C1[C@H]2CC[C@H]3[C@]4(C)C[C@H](O[C@@H]5OC(CO)[C@@H](OSOOO)[C@H](OS(=O)(=O)O)[C@H]5OC(=O)CC(C)C)C[C@@H](C(=O)O)[C@H]4CC[C@]3(C2)[C@H]1O (stereo not given in full)	3600	22	2	8	-15	-5	nt

(list continues)
SMILES	Autofluor counter	Sa RN4220 lethal	Mtb hypoxia inh	Mtb hypoxia inh growth	PrP 5UTR inh	Sa ugtP lethal	BJeLR viability
CCN(CC)S(=O)(=O)c1cc(NC(=O)C(=O)c2c(-c3ccccc3)cc3ccccn23)ccc1C	25900*	9.9	0	10	-16	-18	6
CC(=O)NS(=O)(=O)c1ccc(NC(=S)NC(=O)C2CCC2)cc1	5326	-3.2	-3	-12	-19	-2	-11
CN(CC(=O)Nc1cccc(F)c1)CC(=O)Nc1cccc(S(=O)(=O)N2CCCCC2)c1	2837	5.8	0	-6	-9	-8	nt
CCOc1cc(-c2nnc(NC(=O)c3ccco3)o2)cc(OCC)c1OCC	nt	11	2	0	-23	0	12
COc1cccc(NC(=O)Cn2c(=O)n(CC3CCCO3)c(=O)c3ccccc32)c1 (stereo not given)	4169	5.2	5	8	1	8	1
CCOC(=O)C1(Cc2ccccc2C)CCCN(C(=O)CCn2nccc2C)C1 (stereo not given)	3901	5.4	-13	-4	-21	-2	-1
CC(C)CN(C(=O)C1CCCC1)C1CCS(=O)(=O)C1 (stereo not given)	4939	-4.3	-3	-3	-9	-3	-1
CCc1ccc(NC(=S)Nc2cc(OC)c(NC(=O)C(C)C)cc2OC)cc1	4421	2.5	3	3	-18	2	6
N[C@@H]1CC[C@@]2(O)[C@H]3Cc4ccc(O)c5c4[C@@]2(CCN3CC2CC2)C1O5 (stereo not given in full)	5496	0.3	nt	nt	-18	1	nt
OCc1ccccc1OCCCN1CCC(Cc2ccccc2)CC1	3677	1.4	-2	-1	-16	1	3
Cc1ccc(N/N=C/c2cccnc2)cc1	7999	nt	nt	nt	-46	nt	-14
COc1ccc(C(N)=S)cc1	2601	6.9	2	3	-18	-3	7
COc1ccc(CCNC(=O)CSc2nnc(C(C)N(C)C)n2Cc2ccccc2)cc1OC (stereo not given)	3400	1.3	16	9	3	-1	8
S=c1[nH]nc(-c2ccco2)n1/N=C/c1ccccc1	5973	nt	nt	nt	-18	nt	4
COC(=O)c1c(C)c[nH]c1C	5107	1.2	nt	nt	-6	5	7
Cc1cccc(NS(=O)(=O)c2cccc(C(=O)N3CCN(S(=O)(=O)c4ccccc4)CC3)c2)c1	6050	-0.8	4	13	-17	5	3
CCc1oc(C(=O)O)cc1COC	3006	7.8	2	4	-18	14	-9
Cc1cc(C)n(C(=O)c2ccc([N+](=O)[O-])cc2Cl)n1	2839	-1.3	9	3	1	7	7
O=C(c1cccc(C(F)(F)F)c1)N1CCC(O)(CS(=O)(=O)Cc2ccc(Cl)cc2)CC1	17295*	1.8	-5	-12	-9	-4	-8
